DUX4 inh: blocks DUX4-driven transcriptional activation | 293T-iDUX4 ZSCAN4-Gaussia luciferase reporter, 24 h; hits give low values | activity change, negative = inhibition, % (test concentration not listed) | hit rate 0.8% among 37,000 | AID 1224904;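 active means -10% or lower and over 25 points stronger than a control reporter; inconclusive means -10% or lower with a smaller gap; inactive means above -10%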;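 further: 0% = median of neutral control wells and -100% = median of positive control wells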
DUX4 inh difference: recorded beside DUX4 inh, whose call it bears; Gaussia minus Italica difference, %; measured here: selective DUX4 reporter inhibition;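 worked out from the two reporters; negative = selective loss of the DUX4 reporter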
DUX4 inh control: further read-out of DUX4 inh, marked with its call; activity change, negative = inhibition, %; measured here: Italica tet-on control reporter;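 0 = neutral control and -100 = positive control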
Numbers without * were called inactive; u = inconclusive; x = no result given; & = joins results of further samples. The list is partial; the hit share may differ from the screen's.

No. | Compound | DUX4 inh | DUX4 inh difference | DUX4 inh control
1 | COc1ccc(NC(=O)Nc2ccc3c(c2)[C@H]2C[C@H](CC(=O)O)O[C@@H](CO)[C@H]2O3)cc1 | 4 | -2 | 6.2
2 | O=C(NC[C@@H]1[C@@H](c2ccccc2)[C@@H](CO)N1CC1CCCC1)c1ccccc1 | 1 | 0 | 0.9
3 | O=C(C[C@@H]1C=C[C@H](NC(=O)C2CCOCC2)[C@@H](CO)O1)Nc1ccc(-c2ccccc2)cc1 | 3 | 4 | -0.6
4 | C[C@@H]1CCCCO[C@@H](CN(C)C(=O)Nc2ccc(C(F)(F)F)cc2)[C@H](C)CN([C@@H](C)CO)C(=O)c2cc(N(C)C)ccc2O1 | 6 | 6 | -0.1
5 | CN1c2ccc(-c3ccc(F)cc3)cc2[C@H]2[C@H](CCN2C(=O)Cc2ccccn2)[C@@H]1CO | -2 | 51 | -52
6 | N#C[C@@H]1[C@@H](c2ccccc2C2=CCCCC2)[C@@H](CO)N1C(=O)NC1CCCC1 | u | x | x
7 | CCCC(=O)Nc1ccc2c(c1)C(=O)N(C)[C@H]1CC[C@@H](CC(=O)NCC3CCCCC3)O[C@H]1CO2 | -3 | -5 | 2.9
8 | O=C(C[C@H]1C[C@H]2c3cc(NS(=O)(=O)c4ccc(F)cc4)ccc3O[C@H]2[C@@H](CO)O1)NC1CCCCC1 | -3 | 3 | -5.7
9 | CCC(=O)N1[C@@H]2c3ccc(C4=CCCC4)c(=O)n3C[C@@H]2[C@@H](CO)[C@@H]1C(=O)Nc1ccccc1 | 5 | 6 | -0.7
10 | CO[C@@H]1CN(C)C(=O)c2cc(NS(C)(=O)=O)ccc2OC[C@H](C)N(C)C[C@@H]1C | -4 | -6 | 1.9
11 | C[C@H](CO)N1C[C@H](C)[C@H](CN(C)C(=O)CCCN(C)C)OCCCC[C@H](C)Oc2ccc(NC(=O)Nc3ccc4c(c3)OCO4)cc2C1=O | 2 | -6 | 7.5
12 | C[C@@H]1CCCCO[C@@H](CN(C)C(=O)Nc2ccc(C(F)(F)F)cc2)[C@@H](C)CN([C@@H](C)CO)C(=O)c2cc(N(C)C)ccc2O1 | 0 | -2 | 2.1
13 | CCCC(=O)Nc1ccc2c(c1)C(=O)N(C)C[C@@H](OC)[C@@H](C)CN(C(=O)C1CCCC1)[C@@H](C)CO2 | -3 | -6 | 2.7
14 | CC=Cc1ccc2n(c1=O)C[C@H]1[C@H](CO)[C@@H](C(=O)NCCC)[C@@H]2N1Cc1nccs1 (mixture of isomers) | -8 | -14 | 6.7
15 | O=C(C1CC1)N1CCCCN2[C@H](CO)[C@@H](c3ccc(-c4cccc(F)c4)cc3)[C@H]2C1 | 0 | 0 | -0.1
16 | C[C@H](CO)N1C[C@H](C)[C@H](CN(C)C(=O)Nc2ccc(F)cc2)Oc2ncc(/C=C/c3ccccc3)cc2C1=O | -3 | -2 | -1.3
17 | C[C@@H](NC(=O)C[C@@H]1C[C@H]2c3cc(N(C)C)ccc3O[C@H]2[C@@H](CO)O1)c1ccccc1 | 4 | 1 | 3.2
18 | COc1ccc(S(=O)(=O)Nc2ccc3c(c2)[C@H]2C[C@@H](CC(=O)NCC4CC4)O[C@H](CO)[C@H]2O3)cc1 | -1 | -1 | 0.1
19 | CO[C@H]1CN(C)C(=O)c2ccc(NC(=O)Nc3ccccc3Cl)cc2OC[C@H](C)NC[C@H]1C | -2 | 3 | -5.1
20 | C[C@H]1CN([C@@H](C)CO)C(=O)CCCn2cc(nn2)CO[C@H]1CN(C)Cc1cccc2c1OCCCO2 | -1 | -4 | 3.3
21 | COc1cccc(CNC(=O)[C@@H]2[C@@H](CO)[C@@H]3Cn4c(cccc4=O)[C@H]2N3C(=O)C2CCCC2)c1 | -2 | -13 | 11
22 | C[C@H](CO)N1C[C@H](C)[C@@H](CN(C)C(=O)CCCN(C)C)OCc2cn(nn2)CCCC1=O | 8 | 5 | 2.9
23 | CCCNC(=O)[C@H]1[C@H](CO)[C@H]2Cn3c(ccc(-c4ccc(F)cc4)c3=O)[C@H]2N1CC1CC1 | -3 | 1 | -3.5
24 | COc1cccc(NC(=O)Nc2ccc3c(c2)C(=O)N(C)C[C@@H](OC)[C@@H](C)CN(C)[C@H](C)CO3)c1 | u | x | x

In another format: results already given
#21 COc1cccc(CNC(=O)[C@@H]2[C@@H](CO)[C@@H]3Cn4c(cccc4=O)[C@H]2N3C(=O)C2CCCC2)c1
#22 C[C@H](CO)N1C[C@H](C)[C@@H](CN(C)C(=O)CCCN(C)C)OCc2cn(nn2)CCCC1=O

Screen / compound no.	21	22
DUX4 inh	-2	8
DUX4 inh difference	-13	5
DUX4 inh control	11	2.9

Copied from above, entries 13 to 24
No. | Compound | DUX4 inh | DUX4 inh difference | DUX4 inh control
13 | CCCC(=O)Nc1ccc2c(c1)C(=O)N(C)C[C@@H](OC)[C@@H](C)CN(C(=O)C1CCCC1)[C@@H](C)CO2 | -3 | -6 | 2.7
14 | CC=Cc1ccc2n(c1=O)C[C@H]1[C@H](CO)[C@@H](C(=O)NCCC)[C@@H]2N1Cc1nccs1 (mixture of isomers) | -8 | -14 | 6.7
15 | O=C(C1CC1)N1CCCCN2[C@H](CO)[C@@H](c3ccc(-c4cccc(F)c4)cc3)[C@H]2C1 | 0 | 0 | -0.1
16 | C[C@H](CO)N1C[C@H](C)[C@H](CN(C)C(=O)Nc2ccc(F)cc2)Oc2ncc(/C=C/c3ccccc3)cc2C1=O | -3 | -2 | -1.3
17 | C[C@@H](NC(=O)C[C@@H]1C[C@H]2c3cc(N(C)C)ccc3O[C@H]2[C@@H](CO)O1)c1ccccc1 | 4 | 1 | 3.2
18 | COc1ccc(S(=O)(=O)Nc2ccc3c(c2)[C@H]2C[C@@H](CC(=O)NCC4CC4)O[C@H](CO)[C@H]2O3)cc1 | -1 | -1 | 0.1
19 | CO[C@H]1CN(C)C(=O)c2ccc(NC(=O)Nc3ccccc3Cl)cc2OC[C@H](C)NC[C@H]1C | -2 | 3 | -5.1
20 | C[C@H]1CN([C@@H](C)CO)C(=O)CCCn2cc(nn2)CO[C@H]1CN(C)Cc1cccc2c1OCCCO2 | -1 | -4 | 3.3
21 | COc1cccc(CNC(=O)[C@@H]2[C@@H](CO)[C@@H]3Cn4c(cccc4=O)[C@H]2N3C(=O)C2CCCC2)c1 | -2 | -13 | 11
22 | C[C@H](CO)N1C[C@H](C)[C@@H](CN(C)C(=O)CCCN(C)C)OCc2cn(nn2)CCCC1=O | 8 | 5 | 2.9
23 | CCCNC(=O)[C@H]1[C@H](CO)[C@H]2Cn3c(ccc(-c4ccc(F)cc4)c3=O)[C@H]2N1CC1CC1 | -3 | 1 | -3.5
24 | COc1cccc(NC(=O)Nc2ccc3c(c2)C(=O)N(C)C[C@@H](OC)[C@@H](C)CN(C)[C@H](C)CO3)c1 | u | x | x

(more compounds)
No. | Compound | DUX4 inh | DUX4 inh difference | DUX4 inh control
25 | CCCNC(=O)N[C@@H]1CC[C@H](CC(=O)N2CCN(C)CC2)O[C@@H]1CO | 6 | 3 | 3.3
26 | C[C@H](NC(=O)N(C)C[C@@H]1OCc2ccccc2-c2c(n(C)c3ccccc23)C(=O)N([C@H](C)CO)C[C@@H]1C)c1ccccc1 | u | x | x
27 | O=C(Nc1ccc(F)cc1)N1[C@@H]2CNC[C@H]1C2c1ccc(-c2cccnc2)cc1 (some centres not stated) | 20&18 | 11&15 | 8.2&3.0
28 | CN1c2ccc(-c3ccccc3F)cc2[C@@H]2[C@@H](CCN2C(=O)Cc2ccccn2)[C@@H]1CO | 9 | 3 | 6.8
29 | C[C@H](NC(=O)[C@@H]1N[C@@H]2c3ccc(C4=CCCC4)c(=O)n3C[C@@H]2[C@H]1CO)c1ccccc1 | -6 | 4 | -10
30 | O=S(=O)(c1ccc(F)cc1)N1CCCCN2[C@@H](CO)[C@@H](c3ccc(C4=CCCCC4)cc3)[C@@H]2C1 | -4 | -24 | 19
31 | CCCNC(=O)[C@@H]1[C@@H](CO)[C@@H]2Cn3c(ccc(-c4ccccc4)c3=O)[C@H]1N2Cc1ccccc1F | u | x | x
32 | O=C(c1ccccc1)N1C[C@H]2[C@@H](c3ccccc31)[C@H](CO)N2C(=O)Nc1ccccc1Cl | 7 | 3 | 4.0
33 | CCNC(=O)Nc1ccc2c(c1)C(=O)N(C)[C@H]1CC[C@H](CC(=O)NCC3CC3)O[C@@H]1CO2 | -1 | 0 | -0.4
34 | Cc1noc(C)c1S(=O)(=O)Nc1ccc2c(c1)C(=O)N([C@H](C)CO)C[C@@H](C)[C@H](CN(C)C(=O)CCC(F)(F)F)OCCCC[C@@H](C)O2 | 2 | -6 | 7.8
35 | COC(=O)C[C@@H]1C[C@H]2c3cc(NS(C)(=O)=O)ccc3O[C@H]2[C@H](CO)O1 | -2 | 0 | -2.2
36 | CC(C)NC(=O)N1C[C@H]2[C@@H](c3ccccc31)[C@H](CO)N2C(=O)c1ccncc1 | -2 | 1 | -2.9
37 | COc1ccccc1NC(=O)N1C[C@@H]2N[C@H](C1)C2c1ccc(/C=C/c2ccccc2)cc1 (some centres not stated) | u | x | x
38 | COc1ccc(S(=O)(=O)N(C)C[C@H]2Oc3c(NC(=O)Nc4c(C)noc4C)cccc3C(=O)N([C@H](C)CO)C[C@H]2C)cc1 | -3 | -4 | 0.5
39 | C[C@H](CO)N1C[C@H](C)[C@@H](CN(C)S(=O)(=O)c2ccc(Cl)cc2)OCc2cnnn2CCCC1=O | 8 | 3 | 4.5
40 | C[C@H](CO)N1C[C@H](C)[C@@H](CN(C)Cc2ccc(C(=O)O)cc2)OCCCC[C@H](C)Oc2ccc(NS(=O)(=O)c3ccc(F)cc3)cc2C1=O | -3 | -2 | -0.7
41 | C/C=C/c1ccc([C@H]2[C@@H](CO)N(C(=O)CN(C)C)C23CN(C(=O)C2CC2)C3)cc1 | 4 | 5 | -1.0
42 | CN(C)C(=O)C[C@H]1CC[C@H]2[C@@H](COC[C@@H](O)CN2S(=O)(=O)c2ccccc2Cl)O1 | 8 | 9 | -1.5
43 | CN(C)CC(=O)Nc1ccc2c(c1)[C@H]1C[C@H](CC(=O)NCc3ccc(-c4ccccc4)cc3)O[C@@H](CO)[C@H]1O2 | -9 | -6 | -3.4
44 | O=C(C[C@@H]1CC[C@@H]2[C@H](COC[C@@H](O)CN2C(=O)c2ccccc2F)O1)N1CCOCC1 | 7 | -2 | 8.9
45 | CCCC#Cc1ccc([C@H]2[C@@H](CO)N(C(=O)C3CCCCC3)[C@H]2C#N)cc1 | 5 | 3 | 2.0
46 | CCS(=O)(=O)N(C)C[C@@H]1OCc2ccccc2-c2c(n(C)c3ccccc23)C(=O)N([C@@H](C)CO)C[C@@H]1C | -4 | 1 | -4.9
47 | COc1cccc(C#Cc2ccc([C@@H]3[C@@H](C#N)N(C(=O)C4CCOCC4)[C@H]3CO)cc2)c1 | -1 | -2 | 1.1
